Screening data deposited in PubChem BioAssay by Johns Hopkins Ion Channel Center.
KCNQ2 inh: KCNQ2 channel blockers in CHO-K1 cells – cell-based, FluxOR thallium flux, B-score, primary screen (AID 2156); O88943; 20 min; active compounds read low; only compounds with negative scores are shown here; some inactives read as strong as hits; B-score at 10 µM; 1.1% of 310,000 active;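 active = fluorescence ratio B-score at most minus 3 library SDs, with starting brightness B-score within 2 library SDs, cut at about -5.5 in these data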
Target sequence (O88943 whole entry, looked up): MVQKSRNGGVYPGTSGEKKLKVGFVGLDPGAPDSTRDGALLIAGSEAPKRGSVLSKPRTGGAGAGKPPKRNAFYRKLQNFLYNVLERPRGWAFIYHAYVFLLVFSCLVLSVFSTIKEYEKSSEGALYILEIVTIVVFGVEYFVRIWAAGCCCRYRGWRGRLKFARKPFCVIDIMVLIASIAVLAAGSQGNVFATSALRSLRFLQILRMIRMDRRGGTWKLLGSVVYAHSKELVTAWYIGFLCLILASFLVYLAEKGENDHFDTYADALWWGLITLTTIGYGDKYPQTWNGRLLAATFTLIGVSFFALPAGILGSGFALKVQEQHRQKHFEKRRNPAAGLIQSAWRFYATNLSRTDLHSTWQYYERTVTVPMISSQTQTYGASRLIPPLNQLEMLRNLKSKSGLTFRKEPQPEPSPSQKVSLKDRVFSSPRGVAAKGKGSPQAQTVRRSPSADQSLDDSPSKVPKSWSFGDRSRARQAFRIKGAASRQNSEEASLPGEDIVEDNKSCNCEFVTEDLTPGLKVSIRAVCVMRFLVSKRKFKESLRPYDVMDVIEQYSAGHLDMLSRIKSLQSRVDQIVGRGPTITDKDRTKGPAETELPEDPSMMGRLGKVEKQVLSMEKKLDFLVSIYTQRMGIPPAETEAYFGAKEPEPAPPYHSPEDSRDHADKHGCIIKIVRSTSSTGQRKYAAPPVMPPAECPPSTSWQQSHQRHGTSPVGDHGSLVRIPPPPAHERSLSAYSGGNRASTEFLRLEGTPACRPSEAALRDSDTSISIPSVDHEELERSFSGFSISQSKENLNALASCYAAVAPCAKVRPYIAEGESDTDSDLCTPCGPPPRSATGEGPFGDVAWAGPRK
KCNQ2 inh baseline: further read-out of KCNQ2 inh, marked with its call; B-score; measured here: initial fluorescence intensity artifact check;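 brightness before thallium and not channel activity; 0 = typical well and far values either way flag optical interference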
Numbers without * were called inactive; i = inactive. Only part of the results is shown; the hit share may differ from the screen's.

SMILES | KCNQ2 inh | KCNQ2 inh baseline
COc1cc(/C=N/N2CCN(Cc3ccc(C)cc3)CC2)cc(OC)c1O | i | 1.53
O=C(NCc1ccc(Cl)cc1)c1ccc(-c2ccccc2C(F)(F)F)o1 | i | 1.67
Cc1cc(Cl)c(OCCCN(C)C)c(Br)c1 | i | 0.29
COc1cccc(CNC(=O)CN2C(=O)COc3ccc(S(=O)(=O)N4CCC(C)CC4)cc32)c1 | i | 0.02
Cc1ccc(S(=O)(=O)N(C)C)cc1NC(=O)CN1C(=O)NC2(CCCCCCC2)C1=O | i | 2.53
Cc1[nH]n(-c2cccc(Cl)c2)c(=O)c1C=NCc1ccco1 | i | -0.8
CCC1N=C(SC)NC(C)=C1C(=O)c1ccccc1 (configuration not stated) | i | -1.8
CC1(C)CC(=O)C(C2C3=C(CC(C)(C)CC3=O)Oc3ccccc32)=C(O)C1 (configuration not stated) | i | 0.83
CCN(c1ccccc1)S(=O)(=O)c1ccc(Cl)c(NC(=O)CSc2n[nH]c(N)n2)c1 | i | 0.06
O=C(Nc1cc(S(=O)(=O)N2CCCCCC2)ccc1OCC(F)(F)F)C1CCC1 | i | -0.2

Next section; it opens with the six that closed the last part.
SMILES | KCNQ2 inh | KCNQ2 inh baseline
Cc1ccc(S(=O)(=O)N(C)C)cc1NC(=O)CN1C(=O)NC2(CCCCCCC2)C1=O | i | 2.53
Cc1[nH]n(-c2cccc(Cl)c2)c(=O)c1C=NCc1ccco1 | i | -0.8
CCC1N=C(SC)NC(C)=C1C(=O)c1ccccc1 (configuration not stated) | i | -1.8
CC1(C)CC(=O)C(C2C3=C(CC(C)(C)CC3=O)Oc3ccccc32)=C(O)C1 (configuration not stated) | i | 0.83
CCN(c1ccccc1)S(=O)(=O)c1ccc(Cl)c(NC(=O)CSc2n[nH]c(N)n2)c1 | i | 0.06
O=C(Nc1cc(S(=O)(=O)N2CCCCCC2)ccc1OCC(F)(F)F)C1CCC1 | i | -0.2
O=S(=O)(Nc1ccc(S(=O)(=O)N2CCCCC2)cc1)c1cccs1 | i | 1.33
CC(=O)C(C(c1ccccc1)c1c[nH]c2ccccc12)[N+](=O)[O-] (configuration not stated) | i | -1.79
Cn1c(=O)cc(SCC(=O)N2CCN(C(=O)c3ccco3)CC2)c2ccccc21 | i | 2.2
O=C(CC1Sc2ncnn2C1=O)Nc1ccc(Br)cc1 (configuration not stated) | i | 3.45
CCOC(=O)C(CC)Sc1cc(C)nc2ccc(OC)cc12 (configuration not stated) | i | -0.68
COc1ccc2c(C)cc(N3CCOCC3)nc2c1 | i | -0.27
COc1ccccc1/C=C/[C@@H]1C[C@H]2CN(Cc3cccc(Cl)c3)C(=O)[C@]23CCCN13 | i | -1.09
Cc1ccc(C(=O)N2CCN(CCNC(=O)C(=O)NC(C)C)CC2)cc1 | i | -0.17
C#CCn1c(=NC(=O)c2cc(-c3cccs3)nc3ccccc23)sc2cc(S(N)(=O)=O)ccc21 | i | 1.94
O=C(Nc1ccc(Br)cn1)c1ccc(Cl)s1 | i | -0.02

Structural class: those above containing a CF3 group.
SMILES | KCNQ2 inh | KCNQ2 inh baseline
O=C(NCc1ccc(Cl)cc1)c1ccc(-c2ccccc2C(F)(F)F)o1 | i | 1.67
O=C(Nc1cc(S(=O)(=O)N2CCCCCC2)ccc1OCC(F)(F)F)C1CCC1 | i | -0.2

The list continues.
SMILES | KCNQ2 inh | KCNQ2 inh baseline
COc1ccc(-n2ncc3c2CC(C)(C)CC3NC(=O)CCCN2CCCC2=O)cc1 (configuration not stated) | i | 2.22
CCOc1ccccc1/C=C(\C#N)C(=O)NC1CC1 | i | 0.49
Cc1ccc(C)c(NC(=S)N2CCN(CCO)CC2)c1 | i | 3.6
Cc1cc(C)cc(NC(=S)N2CCN(c3ccc(F)cc3)CC2)c1 | i | -0.55
COc1ccccc1OCC(=O)NCc1ccco1 | i | 2.06
O=C(CSc1nc(-c2ccccc2)cc(=O)[nH]1)Nc1ccc(F)c(F)c1 | i | -2.35
COc1cccc(N2C(=O)C3CCCN3C2c2cccs2)c1 (configuration not stated) | i | -0.19
CN(CC(=O)Nc1cccc(F)c1)C(=O)c1ccc(-c2cccc(C(F)(F)F)c2)o1 | i | 0.32
Cc1nc(CCNC(=O)CC2C(=O)NCCN2Cc2ccccc2)sc1C (configuration not stated) | i | 0.48
O=C(O)CC1c2ccccc2C=Cc2ccccc21 | i | -0.21
Nc1nonc1-n1nnc(C(=O)N/N=C/c2ccc(Br)cc2)c1CSC1=NCCS1 | i | -1.21
O=C(CCS(=O)(=O)c1ccc(Br)cc1)Nc1cc(F)ccc1F | i | -0.24
O=C(c1cc(-c2ccccc2)on1)N1CCc2ccccc2C1 | i | -0.36
CN(Cc1ccccc1)C(=O)COC(=O)COc1ccc(C#N)cc1 | i | -0.07
Cc1nn(CCc2n[nH]c(=S)n2-c2cccc(Cl)c2)c(C)c1[N+](=O)[O-] | i | 0.39
COC(=O)c1cc(S(=O)(=O)NCC2CCN(CCc3cccs3)CC2)cn1C | i | 2.33
Cc1cc(C)n(-c2ccc(F)cc2CN2CCN(Cc3ccccc3)C(CCO)C2)n1 (configuration not stated) | i | 0.34
Cc1cc2c(c(=O)n1CCCn1ccnc1)C(c1ccco1)C(C#N)=C(N)O2 (configuration not stated) | i | 1.62
CC(=O)N1c2ccc(S(=O)(=O)NCC3CCC(C(=O)Nc4ncccc4C)CC3)cc2CC1C (configuration not stated) | i | 0.63
CC(=O)c1c(C)[nH]c(C(=O)OCc2ccc(Br)cc2)c1C | i | -0.47
CCCc1cc(=O)oc2cc(OCC(=O)NCCCN3CCOCC3)c(Cl)cc12 | i | 0.63
Cc1cccc(N(C)S(=O)(=O)c2cccc3nsnc23)c1 | i | 0.95
Cc1ccc(-c2nc3ccccc3o2)cc1NC(=O)Cc1cccs1 | i | -0.12
Cc1ccc(CNC(=O)CCn2cc(-c3ccc(C)cc3)nc2-c2ccncc2)cc1 | i | 1.17
Cc1ccc(-n2nnnc2-c2cnn(-c3cccc(F)c3)c2C(F)(F)F)cc1 | i | 1.76
CCn1c(SCC(N)=O)nc2cc(S(=O)(=O)N3CCOCC3)ccc21 | i | -0.91
Cc1cc(-c2cc(C(=O)NC3CCCC3)on2)nc(NC2CCCC2)n1 | i | -0.32
COc1ccc(OC)c(C2C(C#N)=C(N)Oc3c2c(C)nn3-c2cccc(Cl)c2)c1 (configuration not stated) | i | 0.01
O=C(COc1ccc(S(=O)(=O)N2CCCCC2)cc1)NCc1ccncc1 | i | 0.03
Cc1ccccc1C(=O)Nc1c(-c2cccs2)c(=O)c2ccccc2n1C | i | 0.91
CCCCn1c(N)c(N(CCOC)C(=O)c2cc(Cl)nc3ccccc23)c(=O)[nH]c1=O | i | 0.02
O=C(CN1C(=O)C2(OCCO2)c2ccccc21)c1ccc(Cl)cc1 | i | -0.29
O=C(NCC1CCCO1)c1cc(-c2ccccc2)on1 (configuration not stated) | i | 1.82
Cc1ccc(Cl)cc1NC(=S)N(C)N | i | 0.14
O=C(Nc1ccccc1)/C(=C/c1ccc([N+](=O)[O-])cc1)NC(=O)c1ccccc1 | i | -0.4
Oc1ccc(Br)cc1/C=N/Nc1nc(N2CCCCC2)nc(N2CCOCC2)n1 | i | 0.09
Cc1cccc(-c2c(NC(=O)c3ccco3)oc3c(C)cccc3c2=O)c1 | i | 3.94
CNc1ccc(/C=C(\CCC(=O)O)c2nc3ccccc3s2)cc1[N+](=O)[O-] | i | -0.95
Cc1cccc(NC(=S)NCC(c2ccccc2)N(C)C)c1 (configuration not stated) | i | 0.11
CC(C)(C)c1csc(NC(=O)C2=COCCO2)n1 | i | -1.01
Cc1cccc(CSCCNC(=O)CSCc2ccc([N+](=O)[O-])cc2)c1 | i | 0.72
COC(=O)c1cc(-c2ccc(Cl)cc2)n[nH]1 | i | 2.11
COc1ccc(C(=O)NC(C)CCc2ccccc2)c(OC)c1 (configuration not stated) | i | 0.23
COc1ccc(C(O)C(CN2CCOCC2)c2ccccc2)cc1 (configuration not stated) | i | -0.06
CCCCn1c(NS(=O)(=O)c2ccc(C)cc2)c(S(=O)(=O)c2ccccc2)c2nc3ccccc3nc21 | i | -0.52
COc1ccc(NC(=O)CN(C)C(=O)c2ccc(NS(=O)(=O)c3ccc(F)cc3)cc2)cc1 | i | -0.4
Cc1ccccc1C(=O)OCCN(C)Cc1ccccc1 | i | 0.1
COc1cccc(C2SCC(=O)N2c2ccc(Br)cc2)c1OC (configuration not stated) | i | 0.62
Cc1csc(NC(=O)CSc2nc(C)cs2)n1 | i | 0.55
O=C1Nc2ccccc2C(O)(C(=O)NCc2ccco2)N1c1ccccc1 (configuration not stated) | i | -0.37

(next part)
SMILES | KCNQ2 inh | KCNQ2 inh baseline
CCCSc1nc(N2CCOCC2)c2c(c1C#N)CCCC2 | i | -0.55
CC(=O)C1C(c2cccc([N+](=O)[O-])c2)C2C(C)=NN=C2CC1(C)O (configuration not stated) | i | -0.05
CCOc1cc(/C=C2\SC(=S)N(NC(=O)c3cccnc3)C2=O)ccc1O | i | 2.36
Cc1nc(-c2ccc(S(=O)(=O)N3CCN(C4c5ccccc5-c5ccccc54)CC3)s2)cs1 | i | 0.4
Cc1ccccc1-c1nnc(CN2CCC(C)CC2)o1 | i | 0.05
Cc1ccc(S(=O)(=O)c2cc3ccc(O)cc3oc2=O)cc1C | i | 2.15
COc1ccc(NC(=O)NCC(C)CSc2ccc(C)cc2)c(OC)c1 (configuration not stated) | i | -0.83
CCN1CCN(c2ccc(S(=O)(=O)N3CCOCC3)cc2NC(=O)/C=C/c2cccc(OC)c2OC)CC1 | i | -0.06
COCCn1c(/C=C/c2ccccc2)nc2ccccc21 | i | -1.97
O=C(CC(NC(=O)c1ccccc1Cl)c1ccccc1)NCCc1ccc(Cl)cc1 (configuration not stated) | i | 1.62
CCOc1ccc(C(=O)N2CCN(Cc3ccccc3)CC2)cc1 | i | -1.22
CC(CCc1ccccc1)NC(=O)CN1CCSc2ccccc21 (configuration not stated) | i | -0.92
Cc1ccc2nc(-c3ccc(NC(=O)CN(C)S(=O)(=O)c4ccccc4)cc3)sc2c1 | i | 0.44
CCOC(=O)C1CCCN(C(=O)c2cc3c(=O)n(C)c4ccccc4c3n2C)C1 (configuration not stated) | i | -0.96
C=CC[C@@H]1C=C(C)C[C@H](C)C[C@H](OC)[C@H]2O[C@@](O)(C(=O)C(=O)N3CCCC[C@H]3C(=O)O[C@H](/C(C)=C/[C@@H]3CC[C@@H](O)[C@H](OC)C3)[C@H](C)[C@@H](O)CC1=O)[C@H](C)C[C@@H]2OC | i | -0.97
COc1ccc(-c2csc3nc(-c4cccnc4)nc(Cl)c23)cc1OC | i | -0.04
Cc1oc(-c2ccccc2F)nc1CS(=O)(=O)CC(=O)NC(C)CCc1ccccc1 (configuration not stated) | i | -0.21
O=C1CCC(=O)N1c1cccc(OS(=O)(=O)c2ccccc2)c1 | i | -0.45
Cc1cccc(OCCNC(=O)c2cccc(Oc3ccc(C(F)(F)F)cc3[N+](=O)[O-])c2)c1 | i | 1.85
CCOC(=O)c1nn(-c2ccc(C)cc2)cc1O | i | -0.51

Record cards (already shown). Order of values: KCNQ2 inh	KCNQ2 inh baseline
Listed for COc1ccc(-c2csc3nc(-c4cccnc4)nc(Cl)c23)cc1OC : i	-0.04
Listed for CCOC(=O)C1CCCN(C(=O)c2cc3c(=O)n(C)c4ccccc4c3n2C)C1 (configuration not stated) : i	-0.96
Listed for CCOC(=O)c1nn(-c2ccc(C)cc2)cc1O : i	-0.51
Listed for CCOc1ccc(C(=O)N2CCN(Cc3ccccc3)CC2)cc1 : i	-1.22

Next records
SMILES | KCNQ2 inh | KCNQ2 inh baseline
O=C(Nc1ccccc1N1CCOCC1)c1cc(-c2ccncc2)nc2ccccc12 | -7.24* | 0.08*
Cc1cccc(N2CCN(C(=O)Cc3ccccc3[N+](=O)[O-])CC2)c1C | i | 0.04
CC(=O)c1c(C)[nH]c(C(=O)Nc2cc(C)ccc2C)c1C | i | 1.21
Cc1c(OCC(F)(F)F)ccnc1CS(=O)c1nc2ccccc2[nH]1 (configuration not stated) | i | -0.9
COC(=O)[C@@H]1C[C@@]2(O)[C@H](O)[C@H](O)[C@H](O)C[C@H]2N1Cc1ccc(-c2ccccc2)cc1 | i | 0.13
O=C1CCC(=O)N1c1ccc(-c2nc3sc4c(c3c(=O)o2)CCC4)cc1 | i | -0.24
Cc1ccccc1-c1cc2c(nn1)-c1ccccc1C2=O | i | 0.17
CC(=O)NCCOC(=O)Nc1ccncc1 | i | 3.17
Cc1sc2nc(COC(=O)c3ccc(Cl)c(N)c3)[nH]c(=O)c2c1C | i | -0.41
Cc1cccc(NC(=S)N2CCC(c3nc4ccccc4o3)CC2)c1C | i | 0.83
CCN1CC(CN(C)Cc2cn(-c3ccc(C)cc3)nc2-c2ccc(F)cc2)CC1=O (configuration not stated) | i | 0.78
Cc1ccc(/C=N/NC(=O)c2ccc(N(C)S(=O)(=O)c3ccccc3)cc2)cc1 | i | -1.6
O=C(CC12CC3CC(CC(C3)C1)C2)NCc1ccccc1 | i | -1.13
Cc1sc(NC(=O)c2ccco2)c(C(=O)c2ccc(Cl)cc2)c1C | i | 3.07
CN(c1ccccc1)S(=O)(=O)c1cccc(NC(=O)CN2CCCc3ccccc32)c1 | i | -0.86
COCCSc1ccccc1C(=O)Nc1nnc(COC)s1 | i | -0.63
Cc1ccc(N(Cc2ccccc2)C(=O)c2ccc(S(=O)(=O)N3CCOCC3)cc2)cc1 | i | -0.05
CC(C)(C)OC(=O)[C@H](Cc1ccccc1)NC(=O)c1[nH]cnc1C(=O)Nc1ccc(Cl)cc1 | i | -0.32
Cc1ccc(-c2nc(C(=O)NCCCN(C)C)cc3c2[nH]c2ccccc23)cc1 | i | -0.45
c1ccc(CCCNc2ncccn2)cc1 | i | 0.82
Cc1ncoc1C(=O)NC1CCCc2c1cnn2-c1ccc(C(C)(C)C)cc1 (configuration not stated) | i | -0.1
COCCN(C(=O)c1cccc(N2C(=O)CCC2=O)c1)c1nc(-c2ccc([N+](=O)[O-])cc2)cs1 | i | 0.42
Cc1nc(S(=O)(=O)c2ccc(Br)cc2)nc2c1CCC2 | i | 0.82
O=C(N(Cc1ccccc1)c1ccccn1)C12CC3CC(CC(C3)C1)C2 | i | 0.11
C=CC(=O)NC(NC(=O)C=C)c1ccc(Br)cc1 | i | -0.72
